Bioassay records as filed in PubChem.
gsp antagonist: antagonizes gsp, the McCune-Albright syndrome mutation; gsp-mutant cells, cAMP HTRF, 30 min; control for the full effect not named in the record; Potency, µM (series often up to 76.9 µM), inactives show top-dose activity change, negative = inhibition, most hits filed as inhibitors; 0.4% of 340,000 active; active = falling curve of any shape with a large fitted effect; inconclusive = falling curve, mostly with a smaller effect; inactive = flat or rising curve; cell line not stated here;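 also: intracellular cAMP measured with PDE inhibitor Ro 20-1724 present during compound exposure; potency is read from the fitted curve at half-maximal effect; % is scaled to controls: 0 for no effect and ±100 for the full control effect; nearly all actives have a fitted effect of over 65% in size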
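Cells in G418 medium, seeded 16-24 h, 37C; buffer exchange to DPBS + 1 mM CaCl2, 0.5 mM MgCl2, 0.05% BSA; cpds in DMSO + […] (300 uM stock), 30 min 37C; HTRF cAMP detection.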
TRPV1 potentiator: potentiators of human vanilloid receptor 1 (TRPV1); Q8NER1; TRPV1-expressing cells, Fluo-8 calcium influx, capsaicin EC20 potentiation; host cell line not named in the record; control for the full effect not named in the record; potentiation, % at 8.33 µM; 0.02% of 320,000 active; active means potentiation above 80%; inconclusive means 30% to 80%; inactive means below 30%; also: 0% is about no effect
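Cells expressing TRPV1 were dye-loaded with Fluo-8 and read kinetically: 10 s baseline, 3 min after compound (agonist portion), then 2 min after EC20 capsaicin (allosteric enhancer portion). Calcium-bound dye fluorescence at 480/520 nm.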
Menin-MLL FL inh: menin-MLL binding inhibition, fluorescein peptide; Fluorescence polarization, fluorescein-MLL peptide displacement from menin; FP activity change, % at 61.4 µM; 290,000 tested, under 10 active; inconclusive = falling polarisation curve, or a change in total fluorescence; inactive = total fluorescence flat and polarisation flat or rising; no compound was filed as active; the % refers to the polarisation; negative = inhibition;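 also: % of control where 0% means no effect; inhibitors lower the polarisation; unlabelled MLL peptide was the positive control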
gsp agonist: agonists of gsp mutant (McCune-Albright syndrome); gsp mutant cells, cAMP HTRF, 30 min; control for the full effect not named in the record; Potency, µM (titrated, usually from 76.9 µM), inactives show top-dose activation (cAMP increase), hits mostly activators; 0.13% of 340,000 active; active = well fitted activation curve with a large enough effect; inconclusive = small, poorly fitted or top-dose-only effect, or another doubt; inactive = no such curve, though single readings can be large or run the other way; cell line not stated here;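 also: phosphodiesterase inhibitor Ro 20-1724 added with compounds to block cAMP breakdown; potency is read from the fitted curve at half-maximal effect; nearly all actives have a fitted effect of over 60% in size; about a fifth of the inactives were tested at one dose only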
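Cells stably selected in G418 were plated at 2000/well, grown 16-24 hr, then given compounds in DMSO with the PDE inhibitor […] (300 uM solution added) for 30 min at 37C; cAMP was read by HTRF.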
Sfp inh: blocks B. subtilis Sfp PPTase activity | Biochemical Sfp PPTase activity, qHTS | Q9F4F7 | Potency, µM, inactives show max response, negative = inhibition, most hits filed as inhibitors | 3.5% of 310,000 active; active = well fitted inhibition curve with a large enough effect; inconclusive = small, poorly fitted or top-dose-only effect, or another doubt; inactive = no such curve, though single readings can be large or run the other way;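 also: the enzyme is Sfp with the accession as filed and its product quenches rhodamine fluorescence; potency is read from the fitted curve at half-maximal effect; 0% = enzyme reaction without inhibitor and -100% = no enzyme wells; top concentration of the series not given in the record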
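Compounds were incubated with enzyme (final 15 nM) for 15 min at room temperature before substrate addition started the reaction. Fluorescence at 525 nm excitation, 598 nm emission was recorded immediately and after 30 minutes.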
D2 PAM: positive allosteric modulators of human D2 dopamine receptor; potentiation, % (no concentration beside the values); 0.23% of 360,000 active; AID 624464; DiscoveRx D2 beta-arrestin cells, luminescence, 90 min; 100% = 57 uM dopamine signal; P14416; active = potentiation of 50% or more; inconclusive = 30% to 50%; inactive = 30% or less;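 also: compound concentration not given in the record; tested on top of an EC20 dose of dopamine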
Target sequence (P14416 whole entry, looked up): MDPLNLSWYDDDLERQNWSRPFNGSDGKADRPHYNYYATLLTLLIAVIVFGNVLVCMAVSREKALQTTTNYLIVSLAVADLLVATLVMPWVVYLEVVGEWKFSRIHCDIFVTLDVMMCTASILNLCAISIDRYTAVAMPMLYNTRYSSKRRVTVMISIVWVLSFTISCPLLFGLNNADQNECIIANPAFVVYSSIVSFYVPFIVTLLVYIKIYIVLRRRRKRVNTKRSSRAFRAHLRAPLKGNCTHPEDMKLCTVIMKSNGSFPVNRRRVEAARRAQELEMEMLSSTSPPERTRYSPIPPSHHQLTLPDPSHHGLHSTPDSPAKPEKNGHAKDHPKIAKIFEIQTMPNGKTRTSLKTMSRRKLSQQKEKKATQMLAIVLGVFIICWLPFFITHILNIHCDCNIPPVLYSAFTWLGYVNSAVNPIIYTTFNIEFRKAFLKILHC
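D2 cells co-treated with compound plus 50 nM dopamine (EC20) for 90 min at 37 deg C to detect potentiation. Beta-arrestin recruitment was read as enzyme-fragment luminescence after 1 h at ambient temperature. Full response was set by 57 uM dopamine.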
ClpP mod: qHTS Assay for Activators of ClpP. ATP-dependent Clp protease proteolytic subunit (Bacillus subtilis (strain 168)), P80244. purified B. subtilis ClpP, FRET peptide cleavage, 20 min. Potency, µM (titrated, usually from 57.5 µM), for inactives: top-dose activity change, negative = active. 1.9% of 340,000 active. AID 651965, 2013; active = well fitted falling curve with a large enough effect; inconclusive = small, poorly fitted or top-dose-only effect; inactive = no such curve, though single readings can be large or run the other way; also: potency is read from the fitted curve at half-maximal effect; the source files actives as falling curves though it sought activators and does not explain the sign; nearly all actives have a fitted effect of over 65% in size; many hits overshoot -100%
Target sequence (P80244 whole entry, looked up): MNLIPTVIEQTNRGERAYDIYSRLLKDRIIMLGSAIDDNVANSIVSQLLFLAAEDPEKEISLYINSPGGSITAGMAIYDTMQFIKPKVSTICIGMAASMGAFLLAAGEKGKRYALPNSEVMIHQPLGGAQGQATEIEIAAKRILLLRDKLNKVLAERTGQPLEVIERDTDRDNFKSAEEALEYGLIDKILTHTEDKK
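Buffer: 100 mM Tris/HCl pH8, 100 mM KCl, 0.05% low protease BSA, 2.5% glycerol, 0.01% Tween-20. ClpP 10 microg/mL final; 20 min RT; delta FRET normalized to ADEP and DMSO controls.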
* marks the source's active call; other numbers are inactive results; ? = inconclusive; / = not tested or not shown; [ ] = another dose, or the depositor's remark.

SMILES | gsp antagonist | TRPV1 potentiator | Menin-MLL FL inh | gsp agonist | Sfp inh | D2 PAM | ClpP mod
CC1=CCC2COC(c3ccc[n+](Cc4ccccc4)c3)C1C2 (stereo not given) | 0% | 1 | 8.1 | 19% | 4% | -11 | -3.6%
O=C(CN(C(=O)c1ccccc1)C(=O)c1ccccc1)OCc1ccccc1 | 4% | / | / | 1% | / | 4 | 1.2%
CCOC(=O)c1c[nH]c2c(C(F)(F)F)cccc2c1=O | -2% | 21 | -12 | 17%[15.4 µM] | 8% | -6 | /
CCN(CC)C(=O)/C=C/c1ccc(OC)c(S(=O)(=O)N2CCCCC2)c1 | ? | 4 | 0.4 | 1%[15.4 µM] | 7% | -2 | /
CCOc1ccc(CNc2cccc(SC)c2)cc1 | -1% | -5 | -0.9 | 8%[15.4 µM] | 10% | -7 | /
CC(C)(C)OC(=O)NN=C(c1ccc(O)cc1)c1ccc(O)cc1 | -7% | -17 | 0.6 | ? | 16% | 5 | 0.6%
COc1cccc(-n2ccnc2SCC(=O)Nc2cc(C)on2)c1 | -10% | 10 | 0.1 | -8%[15.4 µM] | 15% | -33 | -11%
CCOC(=O)Cn1nnc2c(sc3nc4c(c(-c5ccccc5)c32)CCC4)c1=O | 5% | 10 | 4.0 | 5% | -30% | -3 | -1.6%
CC(C)(C)C(=O)Nc1nnc(SCc2ccc(F)cc2)s1 | 5% | 18 | 1.3 | -1% | 6% | 2 | -1.2%
Cc1ccc(Cl)cc1NC(=O)CCS(=O)(=O)c1cccc2nonc12 | 11% | -12 | 0.0 | -32%[15.4 µM] | 12% | -9 | /
C=CCSc1ccc(S(=O)(=O)N2CCN(C)CC2)cn1 | 18% | 25 | / | -20% | / | -3 | -0.7%
NC(=O)[C@H]1CC2(CC(c3cccc(NC(=O)COc4ccc(Cl)cc4)c3)=NO2)CN1C(=O)C(c1ccccc1)c1ccccc1 (stereo not given in full) | -10% | -9 | 2.0 | / | 10% | -11 | -7.7%
CCOC(=O)C(C)Sc1nc2c([nH]c3ccccc32)c(=O)n1C (stereo not given) | 3% | 19 | -0.7 | -30%[inhibitor] | 14% | -9 | -5.0%
CCOc1ccccc1-n1cnc(C#N)c1N | 5% | 6 | 0.4 | 12% | 6% | -11 | 1.4%
CC(C)(C)NCCCOc1ccc(Cl)cc1C(C)(C)C | / | ? | 4.3 | / | 50µM* | / | /
CCOc1ccccc1NC(=O)CSc1nnc(CNC(=O)COc2ccc(Cl)cc2)o1 | -34% | 2 | 0.0 | -2% | 9% | 4 | 2.3%
N#C/C(=C\c1ccccc1Cl)C(=O)NC(=O)Oc1ccccc1 | 8% | 7 | -4.0 | 6% | 14% | 0 | -2.5%
CCOc1ccc(S(=O)(=O)NCCC(=O)NC2CCN(Cc3ccccc3)CC2)cc1 | 14% | 1 | / | ? | / | -32 | -1.7%
Cn1c(O)c(N=Nc2ccccc2)c2ccccc21 | -1% | 8 | -16 | -23% | 50µM* | -5 | /
O=C(COC(=O)CCc1ccc(S(=O)(=O)N2CCOCC2)cc1)Nc1ccccc1[N+](=O)[O-] | -12% | / | / | -28% | / | 4 | -0.3%
Cc1nnc(NC(=O)CSc2ccccn2)s1 | -1% | 13 | 2.3 | -34%[inhibitor] | 1% | -10 | 1.2%
Cn1c(Cc2ccccc2)nnc1SCc1nc2ccccc2c(=O)[nH]1 | 4% | 4 | 2.3 | ? | 12% | -6 | /
O=C(CN1C(=O)COc2ccccc21)NCCN1CCOCC1 | 12% | -1 | / | 3%[15.4 µM] | 22% | 3 | /
O=C(CC12CC3CC(CC(C3)C1)C2)N1CCN(S(=O)(=O)c2cccs2)CC1 | -2% | ? | / | -3%[15.4 µM] | -23% | -2 | 0.7%
O=C1Nc2ccccc2Nc2ccc([N+](=O)[O-])cc21 | -4% | 4 | ? | -4%[15.4 µM] | -1% | -5 | /
CCOc1ncccc1C(=O)Nc1ccccc1N1CCOCC1 | 13% | / | / | -2%[15.4 µM] | / | -7 | 3.2%
O=S(=O)(Nc1cccc(-n2cnnn2)c1)c1ccc(F)cc1 | 0% | 5 | / | 29%[15.4 µM] | / | -1 | /
O=C1C2C3c4ccccc4C(Br)(c4ccccc43)C2C(=O)N1c1ccccc1O (stereo not given) | 15% | -5 | -1.9 | ? | 10% | -31 | 0.7%
Cc1ccc(OCC(=O)N/N=C\c2c(C)[nH]n(-c3ccccc3)c2=O)c([N+](=O)[O-])c1 | -30% | 11 | 0.6 | 1%[15.4 µM] | 3% | -15 | /
O=C(Nc1ccc(S(=O)(=O)Nc2ncccn2)cc1)c1ccc(N2CCCC2=O)cc1 | -6% | 2 | ? | -3% | 15% | 4 | -6.9%
CCCCNC(=O)Nc1cc(C(=O)OC)ccc1Cl | -10% | -7 | 0.6 | -17% | 5% | -40 | 1.2%
Cc1c(Cl)cccc1NC(=S)NCCCN(C)C | 0% | -6 | 4.9 | -63%[inhibitor] | -20% | -11 | -1.0%
COC(=O)C1=C(C)N(Cc2ccc(C)cc2)C(=O)/C1=C\c1ccc(O)c(OC)c1 | 3% | 6 | 8.3 | 0% | 50µM* | 2 | 10%
O=C(O)Cc1n[nH]c(=O)c2ccccc12 | 7% | 9 | 2.5 | -10% | -1% | -14 | 0.9%
CC1Sc2ccc(S(=O)(=O)N3CCC(C(=O)N(C)Cc4ccccc4)CC3)cc2NC1=O (stereo not given) | ? | 8 | / | 4% | -1% | 3 | 1.4%
Cc1nc2ccc(C(=O)N3c4ccccc4CC3C)cc2s1 (stereo not given) | 7% | -21 | 5.2 | -3% | 17% | 5 | -2.6%
CC(C)C(=O)NC(Nc1ccc(S(N)(=O)=O)cc1)C(Cl)(Cl)Cl (stereo not given) | 15% | 7 | 3.7 | 3%[15.4 µM] | 14% | -4 | 0.3%
CC(=O)c1c(C)[nH]c(C(=O)Nc2cccc(S(=O)(=O)N(C)c3ccccc3)c2)c1C | 32µM* | 7 | 5.7 | 0% | -9% | -1 | /
COc1cccc(-n2nnc(S(=O)(=O)c3ccc(C)cc3)c2N)c1 | -6% | -18 | -2.5 | 12% | 1% | 7 | -0.8%
NC(=O)c1nsc(C(=O)N(c2ccc(F)cc2)C(C(=O)NC2CCCC2)c2ccncc2)c1N (stereo not given) | -37% | -4 | -0.1 | 7%[15.4 µM] | 12% | -8 | /

Ordered by length of the SMILES (ascending): some entries from above
SMILES | gsp antagonist | TRPV1 potentiator | Menin-MLL FL inh | gsp agonist | Sfp inh | D2 PAM | ClpP mod
O=C(O)Cc1n[nH]c(=O)c2ccccc12 | 7% | 9 | 2.5 | -10% | -1% | -14 | 0.9%
Cc1nc2ccc(C(=O)N3c4ccccc4CC3C)cc2s1 (stereo not given) | 7% | -21 | 5.2 | -3% | 17% | 5 | -2.6%
CC(C)C(=O)NC(Nc1ccc(S(N)(=O)=O)cc1)C(Cl)(Cl)Cl (stereo not given) | 15% | 7 | 3.7 | 3%[15.4 µM] | 14% | -4 | 0.3%

(listing goes on)
SMILES | gsp antagonist | TRPV1 potentiator | Menin-MLL FL inh | gsp agonist | Sfp inh | D2 PAM | ClpP mod
CNC(=O)c1cc(C(=O)c2ccc(F)cc2C(F)(F)F)c[nH]1 | 13% | -6 | 4.7 | 0% | 3% | -1 | 1.6%
CC(/C=C1\SC(=S)N(NC(=O)c2cccc(O)c2)C1=O)=C\c1ccccc1 | -44% | -8 | 20 | 4% | ? | 4 | -6.8%
O=C(c1ccccc1)N1CCN(C(=O)c2nn3c(C(F)(F)F)cc(-c4ccccc4)nc3c2Br)CC1 | -14% | 1 | -1.5 | 4% | -5% | 1 | /
O=C(/C=C/c1cn(CC(O)CN2CCCCC2)c2ccccc12)c1cccs1 (stereo not given) | 8% | -4 | ? | -25% | -22% | -25 | -1.4%
CCOC(=O)N1CCN(C(=O)c2ccc(CS(=O)(=O)c3c(Cl)cccc3Cl)o2)CC1 | -8% | -17 | -1.4 | -33%[inhibitor] | -7% | -5 | 0.8%
Cc1ccccc1N=C1SCC(=O)N1Cc1ccccc1 | -8% | 3 | / | -4% | 1% | -1 | -0.6%
CSc1ncc(C(=O)Nc2ccccc2Cl)c(C)n1 | -25% | -23 | 8.4 | 20%[15.4 µM] | 12% | -5 | -1.2%
C=C(C)C1CC=C(C)/C(=N/NC(=O)c2ccc(NC(=O)c3cccc(C)c3)cc2)C1 (stereo not given) | 5% | / | 0.5 | -35% | 7% | -5 | -15%
CCOC(=O)C1CCN(C(=O)c2cc3ccccc3oc2=O)CC1 | 4% | -2 | -0.4 | 1% | 21% | -10 | -2.6%
CCOC(=O)c1ccc(NC(=O)NC2CC3CCC(C2)N3Cc2nnnn2Cc2ccco2)cc1 (stereo not given) | -18% | -14 | 3.0 | 2% | -20% | -3 | -0.2%
Cc1ccc(CN2C(=O)c3ccccc3NC2c2cc(Br)ccc2O)cc1 (stereo not given) | ? | -12 | 3.0 | 4% | 6% | 0 | /
O=C(Nc1c(Br)cc2c(c1Br)Cc1ccccc1-2)C(F)(F)F | -17% | / | / | 3% | / | -10 | 1.7%
O=C(COC(=O)c1cccc([N+](=O)[O-])c1)NCC1CCCO1 (stereo not given) | -3% | 3 | 2.6 | ? | 16% | 2 | 1.1%
COc1cccc(CC(=O)OCC(=O)NCC(=O)Nc2cccc(C)c2C)c1 | 6% | 7 | / | ? | / | -12 | -3.4%
CC1(C)Cc2c(sc(NC(=O)/C=C/C(=O)O)c2C#N)CO1 | 1% | 0 | ? | 10% | -11% | -5 | -0.3%
O=C(COC(=O)C1CC2C=CC1C2)Nc1ccc2c(c1)OC(F)(F)O2 (stereo not given) | -16% | -13 | 1.1 | ? | 11% | 8 | -2.6%
Cc1c(C(=O)N2CCOCC2)[nH]c2ccc(OCc3ccccc3)cc12 | -30% | 19 | -2.0 | ? | ? | -13 | ?
CCCCCNC(=O)CN(c1ccc2c(c1)OCO2)S(C)(=O)=O | 6% | -13 | 0.0 | 3% | -2% | -16 | -0.7%
CN1CCN(c2ncnc3scc(-c4ccccc4Cl)c23)CC1 | 2% | -20 | -8.3 | 7%[15.4 µM] | 6% | 6 | /
CCCOc1ccccc1Nc1nnc(C)c(=O)[nH]1 | -3% | 0 | 2.5 | -10% | 19% | -2 | -0.5%
CCN(CC)C(=O)Cn1cc(SCC(=O)NC)c2ccccc21 | -1% | 6 | 0.5 | -22%[15.4 µM] | 12% | 2 | /
